NOMO-1 viab: NOMO-1 AML cell viability reduction, primary screen, STK33 inhibitor project, CellTiter-Glo luminescence; NOMO-1 AML viability, 72 h; inhibition, % (concentration not given with the values); 7.5% of 37,000 active;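 active = most replicates above 80%; inconclusive = exactly half above 80%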;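 also: wells of about 30 µL received 25 nL stock; 0% = median of vehicle wells and 100% = reference inhibitor level; the first replicate is given; inactives centre near 10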
The depositor's hits bear a star; ? = inconclusive.

SMILES | NOMO-1 viab
C[C@@H]1CN([C@H](C)CO)C(=O)c2cccc(NS(=O)(=O)c3cn(C)cn3)c2O[C@@H]1CN(C)CC1CCCCC1 | -1.6
C[C@H](CO)N1C[C@H](C)[C@@H](CN(C)Cc2ccc3c(c2)OCO3)Oc2c(NC(=O)c3ccc(-c4nccs4)cc3)cccc2C1=O | 65.6
Cc1sc2nc(C(=O)Oc3ccc(F)cc3)cc(N)c2c1C | 13.3
O=c1c(Cl)c(NCCc2ccccc2)cnn1-c1ccccc1 | -6.3
Cc1noc(C)c1NC(=O)N(C)C[C@H]1Oc2ccc(NC(=O)Nc3ccc(C(F)(F)F)cc3)cc2C(=O)N([C@H](C)CO)C[C@H]1C | -1.9
O=C(Oc1ccc(C=Nc2ccc(F)cc2)cc1)c1cccs1 | 10.9
Cn1cc(CNC(=O)c2cc(-c3ccncc3)nc3ccc(Br)cc23)cn1 | 43.7
NC(=O)C1c2ccccc2Oc2ccccc21 | 42.4
Clc1ccccc1CSc1nnc(Cn2cnc3ccccc32)n1-c1ccccc1 | 7.4
O=C(NCc1ccco1)c1ccc(Cl)c(S(=O)(=O)N2CCOCC2)c1 | -7.3
C[C@H](CO)N1C[C@H](C)[C@H](CN(C)C(=O)Nc2ccccc2)Oc2ccc(NC(=O)Nc3ccc(F)cc3)cc2CC1=O | 7.2
Cc1ccc(S(=O)(=O)N2C(=O)CCC2C(=O)Nc2cccc3c2CCCC3)cc1 (stereo unspecified) | -1.2
C[C@H](CO)N1C[C@H](C)[C@H](CN(C)C(=O)Nc2cccc3ccccc23)Oc2c(NS(C)(=O)=O)cccc2C1=O | -14.2
C[C@H](CO)N1C[C@H](C)[C@H](CN(C)C)Oc2ccc(NS(=O)(=O)c3cn(C)cn3)cc2C1=O | -14.2
O=C(CC1NCCNC1=O)Nc1ccc2c(c1)OCCO2 (stereo unspecified) | -2.9
C[C@H](CO)N1C[C@H](C)[C@H](CN(C)Cc2ccc(-c3ccccc3)cc2)Oc2ccc(NC(=O)CCCCCC(=O)Nc3ccccc3N)cc2C1=O | 65.0
COC(=O)c1ccccc1NC(=O)c1ccc(NS(=O)(=O)c2cccc3cccnc23)cc1 | 10.8
O=C(Oc1ccc2ccccc2c1)C1c2ccccc2Oc2ccccc21 | 24.4
Cc1ccc(S(=O)(=O)c2ccc(Cl)cc2)cc1S(=O)(=O)N1CCCC1 | 69.2
FC(F)(F)c1ccc(-c2nnc(-c3ccccn3)c(-c3ccccn3)n2)nc1 | -0.2
C[C@@H]1CN([C@H](C)CO)C(=O)Cc2cc(NS(=O)(=O)c3cccs3)ccc2O[C@@H]1CN(C)CC1CCCCC1 | 28.9
C[C@H]1CN([C@@H](C)CO)C(=O)c2cc(NS(=O)(=O)c3cn(C)cn3)ccc2O[C@H]1CN(C)S(=O)(=O)c1ccc(F)cc1 | 5.5
C[C@H](CO)N1C[C@H](C)[C@@H](CN(C)Cc2ccncc2)Oc2ccc(NC(=O)Nc3ccc(C(F)(F)F)cc3)cc2C1=O | 20.5
C[C@H]1CN([C@@H](C)CO)C(=O)c2cc(NC(=O)CCC(F)(F)F)ccc2O[C@H]1CN(C)CC1CC1 | 5.1
CCn1c(SCC(=O)Nc2ccccc2N2CCOCC2)nnc1-c1ccccc1 | -9.1

Quoted at random: 2 entries already listed, in no set order.
SMILES | NOMO-1 viab
COC(=O)c1ccccc1NC(=O)c1ccc(NS(=O)(=O)c2cccc3cccnc23)cc1 | 10.8
Cc1sc2nc(C(=O)Oc3ccc(F)cc3)cc(N)c2c1C | 13.3

Following part
SMILES | NOMO-1 viab
O=C(Nc1nc(-c2ccccc2)cs1)c1ccc(S(=O)(=O)N2CCCCC2)cc1 | 52.8
C[C@@H]1CN([C@@H](C)CO)C(=O)Cc2cc(NC(=O)NC3CCCCC3)ccc2O[C@@H]1CN(C)Cc1ccc(Oc2ccccc2)cc1 | 73.5
C[C@@H]1CN([C@H](C)CO)C(=O)c2cccc(NC(=O)Nc3ccccc3)c2O[C@@H]1CN(C)C(=O)Nc1ccc2c(c1)OCO2 | -10.3
Cc1nc(SC(C(=O)c2ccccc2)c2ccccc2)nc2c1CCCC2 (stereo unspecified) | 39.3
C[C@H](CO)N1C[C@H](C)[C@H](CN(C)S(=O)(=O)c2ccccc2)Oc2c(NS(=O)(=O)c3ccccc3)cccc2C1=O | 0.6
Nc1ncnc2c1ncn2C1OC(CO)[C@H](O)[C@@H]1S (stereo partly specified) | -8.5
C[C@H]1CN([C@@H](C)CO)C(=O)Cc2cc(NS(=O)(=O)c3ccccc3)ccc2O[C@@H]1CN(C)Cc1ccc(C(F)(F)F)cc1 | ?
C[C@H]1CN([C@@H](C)CO)C(=O)Cc2cc(NS(=O)(=O)c3ccc(F)cc3)ccc2O[C@H]1CN(C)S(=O)(=O)c1ccccc1 | 21.0
CNC[C@H]1Oc2ccc(NS(=O)(=O)c3ccc(F)cc3)cc2CC(=O)N([C@H](C)CO)C[C@H]1C | -15.6
C[C@@H]1CCCCO[C@H](CN(C)Cc2ccc3c(c2)OCO3)[C@@H](C)CN([C@H](C)CO)C(=O)c2cc(N(C)C)ccc2O1 | 27.5
COc1ccc(NC(=O)Nc2ccc3c(c2)CC(=O)N([C@@H](C)CO)C[C@@H](C)[C@@H](CN(C)C)O3)cc1 | -5.1
CN(C)c1nc(C(C)(C)C)cc2c1C(=O)NC2=O | -17.6
Cc1noc(C)c1NC(=O)Nc1cccc2c1O[C@H](CN(C)C(=O)NC(C)C)[C@H](C)CN([C@@H](C)CO)C2=O | -8.3
Cc1noc(C)c1NC(=O)Nc1ccc2c(c1)C(=O)N([C@H](C)CO)C[C@H](C)[C@H](CN(C)C(=O)Nc1ccc(F)cc1)O2 | -0.7
C[C@@H]1CCCCO[C@@H](CN(C)CC2CCCCC2)[C@@H](C)CN([C@H](C)CO)C(=O)c2cc(NC(=O)C3CCCCC3)ccc2O1 | 14.6
C[C@H]1CN([C@@H](C)CO)C(=O)c2cccc(NC(=O)NC3CCCCC3)c2O[C@@H]1CN(C)Cc1ccc(C(=O)O)cc1 | -4.8
C[C@@H]1CCCCO[C@@H](CN(C)Cc2ccc(C(=O)Nc3ccccc3N)cc2)[C@@H](C)CN([C@H](C)CO)C(=O)c2cc(NC(=O)Nc3ccccc3)ccc2O1 | ?
CC(NS(=O)(=O)c1ccc(F)cc1)C(=O)Nc1ccccc1F (stereo unspecified) | 31.1
Cc1cc(OCC(=O)Nc2cccnc2)ccc1[N+](=O)[O-] | 0.5
Cc1cc(C)c(S(=O)(=O)N(CC(=O)O)Cc2ccc(Cl)cc2)c(C)c1 | -2.3
O=C(Nc1ccc(Cl)cc1)N1N=C2c3ccccc3CCC2C1c1cccs1 (stereo unspecified) | 30.5
C[C@H](CO)N1C[C@H](C)[C@H](CN(C)S(=O)(=O)c2cccs2)Oc2c(NC(=O)c3ccncc3)cccc2C1=O | -4.8
Cc1sc2nc(SCCC(=O)NC3CCCCC3)[nH]c(=O)c2c1C | -2.9
C[C@@H]1CCCCO[C@@H](CN(C)Cc2ccc(C(=O)Nc3ccccc3N)cc2)[C@@H](C)CN([C@H](C)CO)C(=O)c2cc(NS(=O)(=O)c3ccc(F)cc3)ccc2O1 | 140.8*
C[C@@H]1CCCCO[C@@H](CN(C)C(=O)Nc2ccc(F)cc2)[C@@H](C)CN([C@H](C)CO)C(=O)c2cc(NS(=O)(=O)c3cn(C)cn3)ccc2O1 | 10.9

Additional structures follow:
SMILES | NOMO-1 viab
C[C@@H]1CN([C@@H](C)CO)C(=O)c2cc(NC(=O)Nc3cccc4ccccc34)ccc2O[C@H]1CN(C)C(=O)Nc1ccccc1 | 9.6
Ic1ccc(N2CCN(Cc3c[nH]c4ncccc34)CC2)cc1 | 61.3
C=C1C(=O)O[C@@H]2[C@H]3C(CO)=CC(=O)C3=C(C)C[C@H](OC(=O)Cc3ccc(O)cc3)[C@@H]12 | 120.3*
Cc1cc(Oc2ccccc2)nc(SCC(=O)Nc2ccccc2)n1 | 6.9
C[C@@H]1CN([C@H](C)CO)C(=O)c2cc(NC(=O)Nc3cccc4ccccc34)ccc2O[C@@H]1CN(C)CC1CCCCC1 | ?
COc1ccc(CN(C)C[C@H]2Oc3ccc(NC(=O)Cn4cnnn4)cc3C(=O)N([C@@H](C)CO)C[C@H]2C)cc1 | -11.5
COc1ccccc1-n1c(SC(C)C(=O)N2CCCCC2)nc2ccc(I)cc2c1=O (stereo unspecified) | 16.9
C[C@@H]1CCCCO[C@@H](CN(C)S(=O)(=O)c2cn(C)cn2)[C@@H](C)CN([C@H](C)CO)C(=O)c2cc(NS(=O)(=O)c3ccccc3)ccc2O1 | 1.7
C[C@@H]1CN([C@H](C)CO)C(=O)Cc2cc(NC(=O)CCC(F)(F)F)ccc2O[C@@H]1CN(C)C(=O)Nc1ccc(F)cc1 | -10.2
C[C@H](CO)N1C[C@H](C)[C@H](CN(C)S(=O)(=O)c2cn(C)cn2)Oc2c(NC(=O)Nc3ccc(F)cc3)cccc2C1=O | -8.0
Cc1noc(C)c1S(=O)(=O)N(C)C[C@@H]1Oc2c(NS(=O)(=O)c3ccccc3)cccc2C(=O)N([C@H](C)CO)C[C@@H]1C | 1.6
C[C@H](CO)N1C[C@H](C)[C@H](CN(C)S(C)(=O)=O)Oc2ccc(NC(=O)Cc3ccccc3)cc2CC1=O | -5.1
C[C@@H]1CN([C@H](C)CO)C(=O)Cc2cc(NS(=O)(=O)c3ccccc3)ccc2O[C@@H]1CN(C)S(=O)(=O)c1cccs1 | -9.5
C[C@@H]1CCCCO[C@@H](CN(C)C(=O)Nc2ccc(F)cc2)[C@@H](C)CN([C@H](C)CO)C(=O)c2cc(NS(=O)(=O)c3ccc(F)cc3)ccc2O1 | 20.7
C[C@@H]1CN([C@@H](C)CO)C(=O)c2cc(NS(=O)(=O)c3ccccc3)ccc2O[C@@H]1CN(C)C(=O)NC1CCCCC1 | -12.3
C[C@H]1CN([C@@H](C)CO)C(=O)Cc2cc(NC(=O)CCN3CCOCC3)ccc2O[C@H]1CN(C)Cc1ccc(C(=O)O)cc1 | 17.5
CNC(=O)Nc1nc2cccnc2s1 | 31.4
COc1ccc2[nH]c(=O)c(CN(C)S(=O)(=O)c3ccc(C)cc3)cc2c1 | -12.0
C[C@H]1CN([C@@H](C)CO)C(=O)Cc2cc(NC(=O)C3CCCCC3)ccc2O[C@@H]1CN(C)S(C)(=O)=O | -9.1
CC(=O)Nc1ccc(NC(=O)CC2C(=O)Nc3ccccc3N2C(C)=O)cc1 (stereo unspecified) | -5.1
COc1ccc(S(=O)(=O)Nc2ccc3c(c2)CC(=O)N([C@@H](C)CO)C[C@H](C)[C@@H](CN(C)S(C)(=O)=O)O3)cc1 | -11.9
COc1cccc(NC(=O)CSc2nnc(-c3ccc(Cl)cc3)n2-c2ccc(F)cc2)c1 | 28.5
C[C@@H]1CN([C@H](C)CO)C(=O)c2cccc(NC(=O)c3cnccn3)c2O[C@H]1CN(C)Cc1ccc(C(=O)O)cc1 | -9.1
C=CCn1c(=S)sc2c(Sc3nnc(-c4ccco4)o3)ncnc21 | 115.5*
COc1ccc(C)cc1S(=O)(=O)N1CCC(C(=O)Nc2ccccc2Sc2ccccc2)CC1 | 45.7

(list continues)
SMILES | NOMO-1 viab
C[C@H]1CN([C@@H](C)CO)C(=O)Cc2cc(NC(=O)CCCCCC(=O)Nc3ccccc3N)ccc2O[C@H]1CN(C)C(=O)Nc1ccc(F)cc1 | 7.3
Cc1ccc(Nc2nc(Oc3ccc(=O)[nH]n3)nc(N3CCOCC3)n2)cc1 | 20.8
C[C@@H]1CN([C@@H](C)CO)C(=O)c2cccc(NC(=O)Nc3ccccc3)c2O[C@@H]1CN(C)C(=O)NC1CCCCC1 | 27.0
Cc1cc(C)nc(Nc2n[nH]c(COc3cccc4cccnc34)n2)n1 | 13.8
C[C@H]1CN([C@@H](C)CO)C(=O)c2cc(NC(=O)NC3CCCCC3)ccc2O[C@H]1CN(C)S(=O)(=O)c1cccs1 | 6.3
C[C@@H]1CCCCO[C@H](CN(C)S(=O)(=O)c2ccc(Cl)cc2)[C@@H](C)CN([C@H](C)CO)C(=O)c2cc(NC(=O)c3ccncc3)ccc2O1 | 25.8
C[C@@H]1CN([C@@H](C)CO)C(=O)c2cccc(NS(=O)(=O)c3cn(C)cn3)c2O[C@@H]1CN(C)C(=O)Nc1cccc2ccccc12 | 7.9
COc1cc(NC(=O)C(C)Oc2cccc(Cl)c2)c(C(=O)O)cc1OC (stereo unspecified) | -4.2
CC(C)NC(=O)Nc1ccc2c(c1)C(=O)N([C@H](C)CO)C[C@H](C)[C@H](CN(C)S(=O)(=O)c1ccccc1)OCCCC[C@@H](C)O2 | 5.9
CCOC(=O)c1cnc(C(F)(F)F)nc1Sc1n[nH]c(-c2cccs2)n1 | -15.9
CNC[C@@H]1Oc2ccc(NC(=O)Nc3ccc4c(c3)OCO4)cc2C(=O)N([C@@H](C)CO)C[C@H]1C | 17.7
Cc1ccc(C)c(NC(=O)CCC(=O)O)c1 | -10.0
c1ccc(-c2ccc(-c3cn4ccccc4n3)cc2)cc1 | ?
Cc1ccc(S(=O)(=O)Nc2ccc3c(c2)C(=O)N([C@@H](C)CO)C[C@H](C)[C@H](CN(C)Cc2ccc(Cl)c(Cl)c2)O3)cc1 | 75.7

Copied from above, 7 compounds:
SMILES | NOMO-1 viab
C[C@H]1CN([C@@H](C)CO)C(=O)Cc2cc(NC(=O)CCCCCC(=O)Nc3ccccc3N)ccc2O[C@H]1CN(C)C(=O)Nc1ccc(F)cc1 | 7.3
Cc1ccc(Nc2nc(Oc3ccc(=O)[nH]n3)nc(N3CCOCC3)n2)cc1 | 20.8
C[C@@H]1CN([C@@H](C)CO)C(=O)c2cccc(NC(=O)Nc3ccccc3)c2O[C@@H]1CN(C)C(=O)NC1CCCCC1 | 27.0
Cc1cc(C)nc(Nc2n[nH]c(COc3cccc4cccnc34)n2)n1 | 13.8
C[C@H]1CN([C@@H](C)CO)C(=O)c2cc(NC(=O)NC3CCCCC3)ccc2O[C@H]1CN(C)S(=O)(=O)c1cccs1 | 6.3
C[C@@H]1CCCCO[C@H](CN(C)S(=O)(=O)c2ccc(Cl)cc2)[C@@H](C)CN([C@H](C)CO)C(=O)c2cc(NC(=O)c3ccncc3)ccc2O1 | 25.8
C[C@@H]1CN([C@@H](C)CO)C(=O)c2cccc(NS(=O)(=O)c3cn(C)cn3)c2O[C@@H]1CN(C)C(=O)Nc1cccc2ccccc12 | 7.9

Some of the compounds tested; count on the stated rates, not on these rows.
